Screening results as filed in PubChem.
HNF4A DNA FP: change in binding of human HNF4 alpha to DNA. P41235. HNF4a-FITC DNA binding, fluorescence polarization, 1 h. activity change, % at 10 µM. actives 0.3% (n = 360,000); in the data active = activity change above about 30%, passing the limit was not always enough;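 note: controls were the assay level and a saturating level of protein; the project sought stronger binding though the title names inhibitors; some compounds called inactive have numbers as strong as hits; positive values seem to mean higher polarization but the record does not say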
Target sequence (P41235 whole entry, looked up): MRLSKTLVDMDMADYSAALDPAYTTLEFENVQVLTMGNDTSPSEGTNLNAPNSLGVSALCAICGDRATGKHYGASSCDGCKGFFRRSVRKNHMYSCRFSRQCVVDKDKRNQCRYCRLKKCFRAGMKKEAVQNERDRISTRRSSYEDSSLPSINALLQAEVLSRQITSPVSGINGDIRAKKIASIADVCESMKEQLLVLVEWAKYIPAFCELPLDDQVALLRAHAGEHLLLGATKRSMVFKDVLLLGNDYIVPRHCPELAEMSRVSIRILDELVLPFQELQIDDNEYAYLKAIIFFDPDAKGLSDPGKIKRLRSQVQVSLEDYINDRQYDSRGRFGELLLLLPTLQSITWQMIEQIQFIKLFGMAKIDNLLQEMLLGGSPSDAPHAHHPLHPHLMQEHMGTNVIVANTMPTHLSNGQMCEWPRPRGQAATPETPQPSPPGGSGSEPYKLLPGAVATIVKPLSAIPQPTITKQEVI
ALR H2O2 inh: blocks human ALR sulfhydryl oxidase activity; P55789; purified ALR, DTT oxidation, H2O2 HRP-luminol luminescence; inhibition, % (concentration not given with the values); actives 3.8% (n = 290,000);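 active = mean and each replicate at 75% or more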;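 note: stock transfer was 7.5 nL into about 7.5 µL; 0% = neutral wells and 100% = wells with inactivated enzyme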
Target sequence (P55789 whole entry, looked up): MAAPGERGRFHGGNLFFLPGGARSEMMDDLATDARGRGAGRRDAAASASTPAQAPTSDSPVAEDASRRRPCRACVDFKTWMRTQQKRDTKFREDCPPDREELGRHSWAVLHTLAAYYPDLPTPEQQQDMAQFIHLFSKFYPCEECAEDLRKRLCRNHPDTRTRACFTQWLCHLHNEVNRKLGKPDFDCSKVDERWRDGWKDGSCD
rRNA inh HTS: inhibits bacterial ribosomal RNA function over humanized ribosomes | actives 1.6% (n = 350,000) | AID 720706 | E. coli WT GFP vs humanized-ribosome RFP mutants, fluorescence, 24 h; stronger effect = lower value; DMSO median 0, no signal -100 | GFP signal change (wild-type ribosome), % (test concentration not listed);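 active = significant combined selectivity score with lowered wild-type GFP, culture density cut under 30%, mutant RFP and density less affected; inactive = any of these conditions unmet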; note: one replicate is shown; some compounds called inactive have numbers as strong as hits
UCH37 DUB inh: blocks the human deubiquitinase UCH37; actives 0.33% (n = 330,000); purified proteasome/UCH37, Ub-AMC cleavage fluorescence; inhibition, % (no concentration beside the values);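 active = mean of two replicates above 20%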;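 note: 0% = compound-free wells with enzyme and 100% = wells lacking proteasome; stock transfer was 100 nL into about 20 µL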
Target sequence (Q9Y5K5 whole entry, looked up): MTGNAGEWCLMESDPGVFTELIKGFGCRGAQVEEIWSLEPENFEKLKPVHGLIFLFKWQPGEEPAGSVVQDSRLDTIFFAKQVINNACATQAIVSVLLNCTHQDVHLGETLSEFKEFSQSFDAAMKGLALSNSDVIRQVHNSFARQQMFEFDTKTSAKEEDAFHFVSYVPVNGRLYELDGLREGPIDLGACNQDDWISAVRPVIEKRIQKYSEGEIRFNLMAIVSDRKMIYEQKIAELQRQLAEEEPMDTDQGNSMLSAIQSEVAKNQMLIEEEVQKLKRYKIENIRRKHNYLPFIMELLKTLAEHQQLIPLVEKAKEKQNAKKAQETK
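System: Proteasome-associated human UCH37 deubiquitinase; Input: 0.15 nM proteasome in added enzyme buffer; Also added: Ub-AMC substrate from 1 µM stock; Incubation: 30 min compound-proteasome preincubation then 25 min substrate reaction, room temperature; Detection: fluorescence, ex 355 nm, em 460 nm; Read-out: % inhibition of Ub-AMC cleavage fluorescence; Benchmarks: no-proteasome and no-compound wells.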
E coli growth: blocks Escherichia coli growth; actives 0.21% (n = 330,000); OD600, 23 h; stronger effect = lower value; AID 1053175; OD600 absorbance (test concentration not listed);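 active = OD600 absorbance below the run mean of sample wells minus 3.6 SD, in any replicate, cut at about 0.56 in these data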;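 note: stock transfer was 300 nL into about 60 µL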
FGF22 binding: shifts melting point of recombinant human FGF22; actives 1.5% (n = 340,000); recombinant FGF22 thermal shift, SYPRO orange fluorescence; percent of sucrose octasulfate shift, DMSO zero; AID 651658; Q9HCT0; calls only at 9.99 µM;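 active = melting point raised past a set limit in the mean and every replicate; three in four hits are not shown here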
B2AR ag: human beta-2 adrenergic receptor agonism by FAP; P07550; Am2.2-beta2AR cells, FAP receptor internalization, flow cytometry; reference of the scale not given here; response, % (no concentration beside the values); actives 0.43% (n = 340,000);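 active = response above a set limit, near 3 SD of response in nonfluorescent compounds, cut at about 42% in these data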;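 note: stock transfer was 100 nL into about 11 µL; a reference agonist was the positive control; negative values mostly stem from fluorescent compounds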
rRNA inh HTS OD600: second read-out of rRNA inh HTS, no call of its own (marks repeat the call); OD600 change, %; measured here: OD600 growth;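 optical density of the mix in the first replicate; 0 = DMSO median and -100 = no signal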
rRNA inh HTS RFP: second read-out of rRNA inh HTS, no call of its own (marks repeat the call); RFP signal change, %; measured here: RFP humanized mutant strains;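 first replicate; 0 = DMSO median and -100 = no signal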
* marks the source's active call; other numbers are inactive results; i = inactive; · = no result given; & = joins results of further samples.

rRNA inh HTS OD600,HNF4A DNA FP,rRNA inh HTS RFP,FGF22 binding,rRNA inh HTS,E coli growth,UCH37 DUB inh,ALR H2O2 inh,B2AR ag,smiles
-12.0,1.3,-3.2,i,2.0,·,·,·,3.0,O=C(CN(c1ccc([N+](=O)[O-])cc1)S(=O)(=O)c1ccccc1)N1CCCCC1
4.0,-0.5,-3.5,i,0.4,0.667,3.5,-3.7,-4.1,COc1cccc(CNC(=O)c2ccc(CS(=O)(=O)Cc3ccccc3C)o2)c1
-9.5,3.7,4.7,i,-15.9,0.674,-0.1,-9.5,0.7,COc1ccc(CCNC(=O)CCc2cn(C)c3ccccc23)c(OC)c1
12.0,-0.1,-1.5,i,3.3,0.7,2.8,-14.7,4.8,CCOc1ccc(N2CC(C(=O)Nc3nnc(Cc4ccccc4)s3)CC2=O)cc1 (stereo not drawn)
-0.9,5.9,1.6,·,11.7,0.711,-15.7,-6.8,-2.0,CN1CCc2nc3ccccc3c(C(=O)OCC(=O)N(CCC#N)c3ccccc3)c2C1
-1.5*,2.8,3.6*,i,-19.6*,0.674,2.9,·,-8.1,O=C(CCNC(=O)c1ccco1)Nc1cccc(Br)c1
·,0.7,·,·,·,0.668,0.5,-3.5,-9.2,Cc1cc(NC(=O)COc2ncnc3sc(C)c(C)c23)no1
3.5,1.1,1.3,i,6.0,0.722,3.1,-10.2,4.7,C/C(=C\C(=O)C(F)(F)F)Nc1ccc(C)cc1
-28.6,26.5,5.3,i,-21.2,0.664,3.4,98.5*,7.5,CCc1c(O)nc(SCC(=O)Nc2ccc(C)cc2)n(C2CCCCC2)c1=O
1.1,-2.6,-0.7,i,3.0,0.641,0.1,2.0,-0.2,CC(C)[C@H](NC(=O)c1ccccc1)C(=O)OCC(=O)NCc1ccc2c(c1)OCO2
-1.2&3.7,-0.1,-0.9&-3.4,i,3.0&7.7,·,0.8,-2.1,-4.7,C[C@H](CO)N1C[C@H](C)[C@@H](CN(C)S(C)(=O)=O)Oc2ccc(NC(=O)C3CCCCC3)cc2C1=O
-2.2,-1.2,7.5,i,2.6,0.738,4.6,-20.6,-0.5,O=C(Nc1cccc(Cl)c1N1CCOCC1)c1ccc([N+](=O)[O-])o1
-20.9,4.4,15.5,i,-25.6,0.635,-15.9,·,-2.0,CCOC(=O)c1ccc(-c2ccc(C3Nc4ccccc4C(=O)N3O)o2)cc1 (stereo not drawn)
·,3.1,·,i,·,0.693,4.1,-15.3,-5.7,COc1ccc(CCCC(=O)NCc2ccccc2)cc1C
13.0,0.7,3.1,i,5.6,0.704,2.1,-2.4,1.8,COCc1cc(C)nc(SCc2ccc([N+](=O)[O-])cc2)c1C#N
·,-3.3,·,·,·,0.771,2.3,0.3,27.9,COc1cc(C(=O)N(CCc2ccccc2)C2CC3CCC(C2)N3C)cc(OC)c1OC (stereo not drawn)
-2.6,1.9,0.4,i,8.1,0.701,3.1,-2.2,-10.0,CC1(C)CC(=O)C=C(Nc2ccc(F)cc2)C1
·,0.9,·,·,·,0.713,-304.4,·,3.3,Cc1ccccc1N(CC(=O)NC1CCCC1)C(=O)C1(C)CC(=O)N=C2C=CC=CN21 (stereo not drawn)
-9.0,-10.1,0.1,i,-19.0,·,·,17.2,0.9,O=C(N/N=C/c1ccc[nH]1)c1ccccc1O
·,0.9,·,·,·,0.709,0.7,-4.1,4.2,CCOC(=O)C1CCN(C(C(=O)Nc2ccc3c(c2)OCCO3)c2ccccc2)CC1 (stereo not drawn)

rRNA inh HTS OD600,HNF4A DNA FP,rRNA inh HTS RFP,FGF22 binding,rRNA inh HTS,E coli growth,UCH37 DUB inh,ALR H2O2 inh,B2AR ag,smiles
5.9,0.2,-2.2,i,8.6,0.725,0.9,-17.5,2.0,Cc1ccc(N2C(=O)C(NC(=O)c3ccccc3)(C(F)(F)F)C3=C2CC(C)(C)CC3=O)cc1 (stereo not drawn)
-2.5,2.4,-0.9,i,3.1,0.69,i,0.5,6.1,Cc1c(CC(=O)NC(C)C)c(=O)oc2cc3c(cc12)CCC(C)(C)O3
2.9,6.9,-4.2,i,3.5,0.641,5.0,3.6,-3.4,Cn1nc(C(=O)Nc2ccccc2)c2c1-c1ccccc1S(=O)(=O)C2
·,0.8,·,·,·,0.728,0.0,-33.4,-7.3,O=C(CCCOc1ccccc1)NC1CCCc2ccccc21 (stereo not drawn)
·,1.8,·,·,·,0.699,4.7,-3.0,-0.2,Cc1c(Cl)cccc1NC(=O)CSc1nnc(CCNC(=O)OC(C)(C)C)o1
18.3,3.2,-2.6,i,7.1,0.695,-73.3,12.5,0.9,CC(C)CCNC(=O)c1cc(-c2cccs2)nc2ccccc12
·,3.8,·,·,·,0.711,1.2,-16.6,21.4,COC(=O)c1ccc(NC(=O)C2CCN(S(C)(=O)=O)CC2)cc1
·,0.3,·,·,·,0.66,5.5,·,9.3,Cc1ccccc1NC(=S)/C(=C(\[O-])c1ccc(C)c([N+](=O)[O-])c1)[n+]1ccccc1
6.2,2.0,10.2,i,-16.5,·,·,67.2,5.1,O=C(CNC(=O)C1COc2ccccc2O1)N/N=C/c1ccc(O)cc1O (stereo not drawn)
·,2.2,·,i,·,·,-0.7,16.3,·,CN1CCc2cc(Cl)c(O)cc2[C@@H](c2ccccc2)C1
2.4,-6.6,4.0,i,10.1,0.623,7.7,-21.5,-2.2,NC(=O)c1sc2nc3c(c(-c4ccco4)c2c1N)CCC3
0.5,2.0,0.4,i,3.0,0.653,0.6,-30.3,-19.2,COc1cccc(C2=NOC(C(=O)Nc3ccc4c(c3)OCO4)C2)c1 (stereo not drawn)
12.8,0.1,-2.5,i,7.3,0.709,4.9,-11.3,0.0,O=C(CN1C(=O)NC2(CCCCCC2)C1=O)NCc1cccs1
·,-2.0,·,·,·,0.769,-9.8,5.8,-21.3,CCCC(=O)OCCNC(=O)c1cc2ccccc2oc1=O
11.9,-1.4,-0.3,i,8.9,0.641,3.8,-1.3,-1.2,O=C(CCS(=O)(=O)c1ccccc1)Nc1ccc(Cl)cn1
·,2.8,·,i,·,0.718,2.6,-3.8,-8.0,CC(C)c1ccc(N2C(=O)CC(NNC(=O)c3ccccc3Cl)C2=O)cc1 (stereo not drawn)
4.8,-2.0,-0.6,i,3.3,0.738,-128.2,44.3,37.7,COc1ccc(C(=O)c2c(-c3cccc(C)c3)oc3ccc(N4CCOCC4)cc23)cn1
-1.6,2.8,1.6,i,11.2,·,·,2.1,1.2,O=C(N/N=C/c1ccc2ncccc2c1)c1cc(-c2cccs2)nc2ccccc12
·,1.6,·,·,·,0.662,-1.6,0.8,-0.7,N#CC(c1ccccn1)(c1ncc(C(F)(F)F)cc1Cl)N1CCOCC1 (stereo not drawn)
·,0.0,·,·,·,0.555,-1.8,·,19.8,CN(C)S(=O)(=O)c1ccc(NC(=O)/C=C/c2ccccc2Cl)cc1

5 structures from above, sorted by molecular weight, high to low.
rRNA inh HTS OD600,HNF4A DNA FP,rRNA inh HTS RFP,FGF22 binding,rRNA inh HTS,E coli growth,UCH37 DUB inh,ALR H2O2 inh,B2AR ag,smiles
-1.2&3.7,-0.1,-0.9&-3.4,i,3.0&7.7,·,0.8,-2.1,-4.7,C[C@H](CO)N1C[C@H](C)[C@@H](CN(C)S(C)(=O)=O)Oc2ccc(NC(=O)C3CCCCC3)cc2C1=O
·,1.6,·,·,·,0.662,-1.6,0.8,-0.7,N#CC(c1ccccn1)(c1ncc(C(F)(F)F)cc1Cl)N1CCOCC1 (stereo not drawn)
11.9,-1.4,-0.3,i,8.9,0.641,3.8,-1.3,-1.2,O=C(CCS(=O)(=O)c1ccccc1)Nc1ccc(Cl)cn1
·,0.7,·,·,·,0.668,0.5,-3.5,-9.2,Cc1cc(NC(=O)COc2ncnc3sc(C)c(C)c23)no1
-2.6,1.9,0.4,i,8.1,0.701,3.1,-2.2,-10.0,CC1(C)CC(=O)C=C(Nc2ccc(F)cc2)C1

(further entries)
rRNA inh HTS OD600,HNF4A DNA FP,rRNA inh HTS RFP,FGF22 binding,rRNA inh HTS,E coli growth,UCH37 DUB inh,ALR H2O2 inh,B2AR ag,smiles
-9.3,-1.6,-1.5,i,-6.7,·,·,·,·,Cn1c(=O)c2c(-c3ccccc3)n(-c3ccccc3N)cc2n(C)c1=O
5.8,1.4,0.1,i,5.4,0.644,-41.6,-4.6,-7.9,COC(=O)COc1ccc(/C=C2\SC(=O)N(CC(=O)Nc3ccccc3F)C2=O)cc1
-1.6,-18.5,-3.4,i,-15.6,·,-3.2,5.1,3.5,O=C(NCc1ccco1)c1cccc2c1C(=O)c1ccc(/C=C/c3ccccc3)cc1S2(=O)=O
-8.9,0.9,24.2,i,-9.0,0.66,2.3,-6.4,-1.1,CCCc1cc(C(=O)N2CCCC(C(=O)c3cccc4ccccc34)C2)n(C)n1 (stereo not drawn)
-21.5,7.9,1.2,i,-20.5,·,3.9,-34.2,19.7,C[C@@H](C(=O)Nc1ccc2ccccc2c1)[C@@H]1C[C@@]1(C)[C@@H](N)c1ccccc1
3.7,1.9,2.7,i,10.1,0.705,1.6,56.0,4.4,CN(CC(=O)Nc1ccc(N2CCOCC2)cc1)CC(=O)Nc1cccc(C#N)c1
·,-1.7,·,·,·,0.693,2.7,73.9,9.3,COc1ccc(-n2c(=S)[nH]c3cc(C(=O)NCc4ccco4)ccc3c2=O)c(OC)c1
-19.4,-1.3,-2.5,i,0.1,0.698,0.0,3.6,-5.7,Cc1ccc(S(=O)(=O)N2CCCCC2)cc1NC(=O)COc1ccccc1
·,-3.8,·,·,·,0.74,-14.4,-2.7,3.3,CC(C)CNC(=O)c1c2c(nc3ccccc13)-c1ccccc1CC2
13.1,2.1,5.9,i,12.8,0.714,-0.8,-6.6,4.3,Cc1ccc(C(=O)Nc2nc3ccc(S(C)(=O)=O)cc3s2)cc1C
2.6,3.5,-0.1,i,7.5,0.673,3.2,-1.9,2.3,O=C(NCc1cccnc1)c1cccc(S(=O)(=O)NCc2ccccc2)c1
-10.9,0.9,-9.1,i,4.3,·,-1.9,-0.7,0.4,CCOc1ccc(Cl)cc1C1=CC(=O)C[C@H](c2ccc(OC)cc2)C1
-21.4*,4.4,1.3*,i,-26.6*,·,·,·,·,Cc1ccc(Cc2c(-c3ccc(Br)cc3)nc3ccc(Cl)cn23)cc1
-10.2,3.2,4.0,i,-5.0,0.681,-0.1,·,1.4,CCOC(=O)c1ccc(S(=O)(=O)N2CCN(C/C=C/c3ccccc3)CC2)cc1

A portion of the library; rates above refer to the full screens.
